# RE007 growth inh: qHTS Assay for Inhibitors of the HIV-1 protein Vpr; AID 651644, 2012; Potency, µM (doses to about 92.2 µM), without a hit: top-dose activity change, negative = less growth; S. pombe RE007 Vpr strain, BacTiter-Glo ATP luminescence, 24 h; control for the full effect not named in the record; actives 0.21% (n = 360,000); active = well fitted falling curve with a large enough effect; inconclusive = small, poorly fitted or top-dose-only effect; inactive = no such curve, though single readings can be large or run the other way;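 further: on the % scale 0 is the no-effect control and ±100 the full control effect; nearly all actives have a fitted effect of over 50% in size; the assay follows cell death caused by Vpr and the record does not say whether a fall means rescue or toxicity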
#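 Fission yeast RE007 carrying one integrated HIV-1 vpr copy, seeded at OD 0.01 in PMG+AL medium with 23 nL pinned compound. Grown 24 h at 30 degrees; viability read by BacTiter-Glo luminescence after 5 min.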
# SARS PLP yeast: qHTS of Yeast-based Assay for SARS-CoV PLP | S. cerevisiae expressing SARS-CoV PLpro, growth rescue; control for the full effect not named in the record | Potency, µM (titrated, usually from 32.9 µM), for inactives: top-dose activity, positive = growth rescue | actives 0.19% (n = 330,000) | AID 485353, 2010; active means well fitted rising curve with a large enough effect; inconclusive means small, poorly fitted or top-dose-only effect; inactive means no such curve, though single readings can be large or run the other way; further: 0% is about no effect; nearly all actives have a fitted effect of over 55% in size; growth read by luminescence after 48 h
# Lassa entry inh: qHTS for Inhibitors of binding or entry into cells for Lassa Virus; actives 1.2% (n = 300,000); Potency, µM (highest dose often 37.9 µM), without a hit: at the top dose activity change, negative = inhibition, most hits filed as inhibitors; Lassa virus pseudotype entry inhibition, cell reporter; control for the full effect not named in the record; active means well fitted inhibition curve with a large enough effect; inconclusive means small, poorly fitted or top-dose-only effect, or effect the other way; inactive means flat fitted curve, though single readings scatter; tested in HEK293 cells; further: on the % scale 0 is the no-effect control and ±100 the full control effect; nearly all actives have a fitted effect of over 50% in size; luciferase read-out
# Cruzain inh noDet: qHTS Assay for Promiscuous and Specific Inhibitors of Cruzain (without detergent). Potency, µM, inactives show max response, negative = inhibition, most hits filed as inhibitors. purified cruzain, Z-FR-AMC fluorescence, no detergent. AID 1476, 2009. actives 2.3% (n = 200,000);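 further: plate controls were enzyme without inhibitor for no effect and buffer without enzyme for full effect; nearly all actives have a fitted effect of over 40% in size; top concentration of the series not given in the record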
# Target sequence (P25779 123-467 limits assumed): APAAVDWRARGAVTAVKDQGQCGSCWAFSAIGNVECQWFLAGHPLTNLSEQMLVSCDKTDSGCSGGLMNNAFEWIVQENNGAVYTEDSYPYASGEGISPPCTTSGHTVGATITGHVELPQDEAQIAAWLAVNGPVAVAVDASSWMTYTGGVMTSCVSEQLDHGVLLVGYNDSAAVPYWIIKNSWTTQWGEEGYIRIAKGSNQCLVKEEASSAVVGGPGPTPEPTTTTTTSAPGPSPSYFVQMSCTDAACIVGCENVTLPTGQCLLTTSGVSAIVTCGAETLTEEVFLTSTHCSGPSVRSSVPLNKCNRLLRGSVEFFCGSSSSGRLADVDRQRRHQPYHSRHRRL
#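 Detergent-free condition (0.00005% Triton X-100) in acetate buffer pH 5.5 with DTT. 1.5 nM enzyme and compound were pre-mixed 15 min, then 2 uM Z-FR-AMC substrate added; reaction progress from fluorescence change between first and third reads (60 s).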
# Marburg entry inh: qHTS for inhibitors of binding or entry into cells for Marburg Virus. Marburg virus pseudotyped entry inhibition, cell reporter; control for the full effect not named in the record; about a third of the inactives were read at about 46 µM. Potency, µM (titrated, usually from 37.8 µM), for the others: at the top dose activity change, negative = inhibition, hits mostly inhibitors. actives 1.8% (n = 300,000); active = well fitted inhibition curve with a large enough effect; inconclusive = small, poorly fitted or top-dose-only effect, or effect the other way; inactive = flat fitted curve, though single readings scatter; tested in HEK293 cells; about a fifth of its hits are not listed in these tables; further: on the % scale 0 is the no-effect control and ±100 the full control effect; luciferase read-out
# Cruzain inh Det: qHTS Assay for Promiscuous and Specific Inhibitors of Cruzain (with detergent); Cruzipain (Trypanosoma cruzi), P25779; purified cruzain, Z-FR-AMC fluorescence, 0.01% Triton; Potency, µM, without a hit: max response, negative = inhibition, usual class: inhibitors; actives 0.43% (n = 200,000);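 further: plate controls were neutral wells for no effect and buffer without enzyme for full effect; nearly all actives have a fitted effect of over 40% in size; top concentration of the series not given in the record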
#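 Detergent-containing run (0.01% Triton X-100) in acetate buffer pH 5.5 with 5 mM DTT: enzyme at 1.5 nM final, 15 min compound preincubation at room temperature, then 2 uM Z-FR-AMC substrate. Activity taken as 60 s fluorescence increase at 360/450 nm.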
# 2A StopGo: High Throughput Screening for Foot and Mouth Disease Virus Antivirals; actives 1.2% (n = 410,000); human cells with a luciferase reporter of 2A StopGo recoding; control for the full effect not named in the record; Potency, µM (highest dose often 57.9 µM), without a hit: at the highest dose signal change, negative = less light; AID 1159524, 2015; active = well fitted falling curve with a large enough effect; inconclusive = small, poorly fitted or top-dose-only effect; inactive = no such curve, though single readings can be large or run the other way; tested in HEK293T cells; further: on the % scale 0 is the no-effect control and ±100 the full control effect; nearly all actives have a fitted effect of over 45% in size; luciferase light after 4 h
# NS1 function inh: qHTS Assay for Inhibitors of Influenza NS1 Protein Function; S. cerevisiae slowed by influenza A NS1, growth recovery by OD600; Potency, µM (top dose mostly 46.1 µM), inactives show at the highest dose activity, positive = more growth; actives 0.4% (n = 270,000); active means well fitted rising curve with a large enough effect; inconclusive means small, poorly fitted or top-dose-only effect; inactive means no such curve, though single readings can be large or run the other way; further: nearly all actives have a fitted effect of over 50% in size
#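 Compounds were scored for reversing the slow growth caused by influenza A NS1 in S. cerevisiae, measured by optical density at 600 nm. Assay medium contained 2% galactose at pH 6.0; NS1-free yeast of the same strain were the positive control.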
# Active calls of the source: *; ? = inconclusive; . = no result given; [ ] = remark or other dose. Unless noted, the call rests on the fitted dose curve; in most records, active means well fitted curve in the direction sought with a large enough effect; inconclusive means small, poorly fitted or top-dose-only effect, or another doubt; inactive means no such curve, though single readings can be large; an effect the other way counts as inactive or inconclusive. Potency means the concentration at half of the fitted maximal effect.
SMILES,RE007 growth inh,SARS PLP yeast,Lassa entry inh,Cruzain inh noDet,Marburg entry inh,Cruzain inh Det,2A StopGo,NS1 function inh
COc1ccc(S(=O)(=O)c2c(SC)nn(Cc3ccccc3C)c2NC(C)=O)cc1,.,.,?,-9.9%,.,2.0%,3.0%,.
O=C(Nc1ccccc1Br)C1CCCN(S(=O)(=O)c2cccc3nsnc23)C1 (stereo not given),.,.,2.2%[46.1 µM],-1.8%,1.6%[46.1 µM],-4.2%,?,.
CSc1cccc(NC(=S)N(CCN(C)C)C(C)c2ccccn2)c1 (stereo not given),-8.6%,-1.0%,?,.,10µM*,.,-1.7%,.
COc1ccc2c(c1)NP(=S)(Oc1ccccc1)N2 (stereo not given),-1.4%,-5.4%,?,.,1.2%,.,56.7%[activator],-0.2%
CCn1c(C)cc(C)c(C#N)c1=O,17.0%,0.3%,11.2%[46.1 µM],.,?,.,-21.5%,.
CCn1ccnc1CN(C)Cc1c(C(=O)N2C[C@@H](C)O[C@@H](C)C2)nc2ccc(Cl)cn12,0.8%,-1.2%,12.2%,.,0.8%,.,-5.3%,-4.2%
Cc1cc(C)n(CC(=O)NNC(=O)CCCOc2ccc(Cl)cc2C)n1,0.4%,-1.3%,11.2%,.,-5.2%,.,-21.1%,0.8%
COc1ccccc1NC(=S)c1ccccc1,.,?,7.3%,-5.7%,?,-3.8%,0.1%,9.6%
O=C(c1cc2ccccc2o1)n1nnc2ccccc21,1.9%,-13.7%,-9.7%,-3.5%,6.3%[46.1 µM],2.1%,-20.9%,-3.7%
Cc1cc2oc(=O)cc(Cn3ccnc3)c2cc1Cl,-11.3%,-1.2%,3.7%[46.1 µM],.,-0.4%[46.1 µM],.,-13.5%,1.2%
Cc1occc1C(=O)O/N=C(\N)c1ccccc1,?,-18.6%,?,.,?,.,-46.7%,-3.1%
O=C(CN1CCN(S(=O)(=O)c2ccccc2)CC1)Nc1ccc(N2CCOCC2)cc1,9.1%,-13.5%,-3.4%,10.1%,0.5%,-0.1%,-1.0%,11.6%
CN(C(=O)c1cc(Cl)c2c(c1)OCCO2)c1c(N)n(Cc2ccccc2)c(=O)[nH]c1=O,-21.0%,-2.9%,-4.3%,.,-5.5%[46.1 µM],.,-4.0%,.
COCCNCc1ccc(Cl)cc1Cl,4.1%,0.8%,-13.8%,.,13.5%,.,-18.9%,2.1%
OCCNCCSc1nc(C2CCCCC2)n(-c2ccccc2Cl)n1,-4.8%,-0.8%,-28.7%,.,?,.,0.0%,-2.2%
Cc1ccc(C(=O)OCC(=O)Nc2ccc(Cl)cn2)cc1S(=O)(=O)N1CCOCC1,-16.5%,-1.0%,-9.8%,.,-6.5%,.,-5.3%,.
CSCC[C@H](NC(=O)[C@@H]1CSC2c3ccccc3C(=O)N21)C(=O)NC1CCCC1 (stereo not given in full),3.9%,-6.8%,.,.,.,.,-12.5%,3.0%
Cc1ccccc1-c1nc(CS(=O)(=O)CC(=O)NCCN2CCOCC2)c(C)o1,-0.1%,1.1%,.,-1.7%,.,-6.0%,-21.9%,-13.2%
COC(=O)c1cccc(NC(=O)c2ccc3c(c2)C(=O)N(C(C)(C)C)C3=O)c1,1.2%,1.6%,1.7%[46.1 µM],.,-1.2%[46.1 µM],.,-24.9%,-1.4%
CC(C)OC(=O)CC1C(=O)NCCN1C(=S)NC(=O)c1ccc(F)cc1 (stereo not given),6.3%,0.7%,-23.5%[46.1 µM],.,-3.3%[46.1 µM],.,-4.4%,0.6%

# Record cards (already shown). Order of screens: RE007 growth inh	SARS PLP yeast	Lassa entry inh	Cruzain inh noDet	Marburg entry inh	Cruzain inh Det	2A StopGo	NS1 function inh
# `COc1ccccc1NC(=S)c1ccccc1` in the list: .	?	7.3%	-5.7%	?	-3.8%	0.1%	9.6%
# `COCCNCc1ccc(Cl)cc1Cl` in the list: 4.1%	0.8%	-13.8%	.	13.5%	.	-18.9%	2.1%

# (next part)
SMILES,RE007 growth inh,SARS PLP yeast,Lassa entry inh,Cruzain inh noDet,Marburg entry inh,Cruzain inh Det,2A StopGo,NS1 function inh
Cc1cc2c(c(=O)o1)C1(C(=O)N(C)c3ccccc31)C(C#N)=C(N)O2 (stereo not given),-0.4%,6.9%,-4.8%,16.1%,1.5%,0.9%,-9.3%,-1.4%
CNC(=O)Nc1cccc(-c2cc(-c3c(Cl)cccc3Cl)no2)c1,23.1%,-6.5%,3.6%[46.1 µM],.,?,.,-24.6%,-72.9%
COc1ccccc1N1CCN(c2ccc(=O)n(CC(=O)Nc3cc(F)ccc3C)n2)CC1,.,.,0.4%[46.1 µM],14.8%,.,2.1%,?,.
COc1cccc(/C=C/C(=O)OCC(=O)NC(=O)NC2CCCCC2)c1,-16.4%,-2.1%,-5.5%,.,-4.3%,.,-22.3%,.
O=C(N=C1SC2CS(=O)(=O)CC2N1CCc1ccccc1)C1CC1 (stereo not given),11.5%,-4.4%,.,.,.,.,2.3%,0.3%
CCOc1ccc(N2C(=O)CS/C2=C(\C(Cl)=C(Cl)Cl)[N+](=O)[O-])cc1,-3.3%,14.9%,?,-29.9%,27.4%,-7.2%,-23.0%,27.7%
CCC(C)Cn1cnc2c(SCc3ccccc3F)nc(N)nc21 (stereo not given),-6.1%,.,-22.6%[46.1 µM],.,?,.,5.8%,.
O=C(CCc1ccc(O)cc1)NNC(=S)NCCc1ccccc1,1.0%,0.8%,?,.,16.3%[46.1 µM],.,0.0%,2.2%
CNc1ccc(C(=O)N2CCN(S(=O)(=O)c3ccc4c(c3)OCCCO4)CC2)cc1[N+](=O)[O-],9.9%,-5.4%,.,.,.,.,-3.7%,-25.5%
O=C(COC(=O)c1ccccc1O)NNC(=O)c1ccc(Br)cc1,-10.3%,1.9%,-16.5%,.,-4.9%,.,17.3%,.
Cc1cc(C)nc(-n2nc(C)cc2NC(=O)C(C)C)n1,-4.5%,-1.8%,8.4%,.,1.0%,.,-6.2%,-4.7%
COc1ccc(NC(=O)C2CCN(C(=O)c3ccco3)CC2)c(OC)c1,1.4%,-0.7%,-0.4%,.,-0.3%[46.1 µM],.,-13.6%,21.3%
Cc1ccc(SCc2[nH]nc3c2C(c2cccnc2)C(C#N)=C(N)O3)cc1 (stereo not given),-6.0%,2.9%,-8.4%,-0.4%,-3.3%,-4.2%,.,1.8%
O=C(NN1C(=O)C2C3C=CC(C3)C2C1=O)c1ccccc1 (stereo not given),-0.8%,-0.3%,-0.6%,.,21.6%[46.1 µM],.,-12.9%,1.4%
CCc1ccc(NC(=O)CC2C(=O)N(c3cccc(C)c3)C(=O)N2C2CC2)cc1 (stereo not given),7.9%,-0.8%,.,.,.,.,0.0%,-10.3%
CCn1c(-c2cccn(Cc3ccccc3)c2=O)n[nH]c1=S,-10.9%,2.9%,10.6%[46.1 µM],.,-0.6%[46.1 µM],.,16.5%,.
O=C1CN(S(=O)(=O)c2cc(C(F)(F)F)ccc2Cl)CCN1,-2.6%,13.4%,-0.3%,.,?,.,1.6%,.
CCN1C(=O)[C@H]2[C@@H](c3ccc(OC)cc3)N3C(=O)CN(CCOC)C(=O)[C@@]3(Cc3ccccc3)[C@H]2C1=O,-0.8%,6.8%,.,.,.,.,-21.9%,-7.5%
O=[N+]([O-])c1cc(Br)cc(C=Nc2ccc3c(c2)OCO3)c1O,-18.1%,-5.0%,.,.,.,.,-25.0%,4.2%
O=C(OCC(=O)N1CCN(c2ccccc2)CC1)c1ccc(Cl)nc1,-1.1%,3.0%,-3.7%,.,7.3%[46.1 µM],.,-9.5%,.

# 3 entries from above, sorted by length of the SMILES, smallest number first:
SMILES,RE007 growth inh,SARS PLP yeast,Lassa entry inh,Cruzain inh noDet,Marburg entry inh,Cruzain inh Det,2A StopGo,NS1 function inh
O=C1CN(S(=O)(=O)c2cc(C(F)(F)F)ccc2Cl)CCN1,-2.6%,13.4%,-0.3%,.,?,.,1.6%,.
O=C(N=C1SC2CS(=O)(=O)CC2N1CCc1ccccc1)C1CC1 (stereo not given),11.5%,-4.4%,.,.,.,.,2.3%,0.3%
CNC(=O)Nc1cccc(-c2cc(-c3c(Cl)cccc3Cl)no2)c1,23.1%,-6.5%,3.6%[46.1 µM],.,?,.,-24.6%,-72.9%

# New compounds follow
SMILES,RE007 growth inh,SARS PLP yeast,Lassa entry inh,Cruzain inh noDet,Marburg entry inh,Cruzain inh Det,2A StopGo,NS1 function inh
COc1cc(OC)cc(-c2nnc(SCC(=O)Nc3cccc(C(=O)O)c3)s2)c1,0.7%,-0.7%,-0.2%[46.1 µM],.,11.4%[46.1 µM],.,18.6%,.
COC(=O)c1sccc1NC(=S)Nc1cc(OC)ccc1OC,12.3%,3.5%,-2.2%[46.1 µM],.,?,.,5.4%,.
NS(=O)(=O)c1ccc(CCNC(=O)NC23CC4CC(CC(C4)C2)C3)cc1,-10.8%,0.2%,.,.,.,.,-6.7%,-1.5%
Cc1ccccc1NC(=O)CN1C(=O)CSc2ccc(S(=O)(=O)N3CCCC3)cc21,-6.3%,8.6%,.,.,.,.,4.7%,6.5%
Cc1sc2nc(SCc3nnc(-c4cccs4)o3)n(C3CCCC3)c(=O)c2c1C,6.7%,1.9%,0.2%,?,-34.8%,-0.2%,13.8%,-18.9%
CCCCOc1ccc(C2=NC(c3cccs3)=Nc3ccc(CC)cc3N2)cc1,.,.,?,?,-13.1%[46.1 µM],0.3%,21.8%,.
CCn1c2ccc(C)cc2c2n[nH]c(=S)nc21,5.5%,?,?,.,?,.,-6.1%,9.9%
COc1ccc(F)cc1S(=O)(=O)NCC(=O)NCc1cc(=O)n(C)c(=O)n1C,7.2%,26.6%,.,.,.,.,8.8%,0.9%
Cc1ccc2nc(-c3ccc(NC(=O)COc4ccccc4C(C)(C)C)cc3)sc2c1,.,.,?,5.1%,.,1.7%,40.4%[activator],.
COc1ccc(NC(=O)C2COc3ccccc3O2)cc1S(=O)(=O)N1CCOCC1 (stereo not given),-12.9%,-0.3%,11.4%,.,-2.0%,.,4.5%,.
